# Source: PubChem
# TRPV1 potentiator: HTS Assay for Compounds that Act as Potentiators of the Vanilloid Receptor 1; TRPV1-expressing cells, Fluo-8 calcium influx, capsaicin EC20 potentiation; host cell line not named in the record; control for the full effect not named in the record; AID 540277, 2011; Transient receptor potential cation channel subfamily V member 1 (Homo sapiens), Q8NER1; potentiation, % at 8.33 µM; 320,000 tested, 0.02% active; active means potentiation above 80%; inconclusive means 30% to 80%; inactive means below 30%; note: 0% is about no effect
# Target sequence (Q8NER1 whole entry, looked up): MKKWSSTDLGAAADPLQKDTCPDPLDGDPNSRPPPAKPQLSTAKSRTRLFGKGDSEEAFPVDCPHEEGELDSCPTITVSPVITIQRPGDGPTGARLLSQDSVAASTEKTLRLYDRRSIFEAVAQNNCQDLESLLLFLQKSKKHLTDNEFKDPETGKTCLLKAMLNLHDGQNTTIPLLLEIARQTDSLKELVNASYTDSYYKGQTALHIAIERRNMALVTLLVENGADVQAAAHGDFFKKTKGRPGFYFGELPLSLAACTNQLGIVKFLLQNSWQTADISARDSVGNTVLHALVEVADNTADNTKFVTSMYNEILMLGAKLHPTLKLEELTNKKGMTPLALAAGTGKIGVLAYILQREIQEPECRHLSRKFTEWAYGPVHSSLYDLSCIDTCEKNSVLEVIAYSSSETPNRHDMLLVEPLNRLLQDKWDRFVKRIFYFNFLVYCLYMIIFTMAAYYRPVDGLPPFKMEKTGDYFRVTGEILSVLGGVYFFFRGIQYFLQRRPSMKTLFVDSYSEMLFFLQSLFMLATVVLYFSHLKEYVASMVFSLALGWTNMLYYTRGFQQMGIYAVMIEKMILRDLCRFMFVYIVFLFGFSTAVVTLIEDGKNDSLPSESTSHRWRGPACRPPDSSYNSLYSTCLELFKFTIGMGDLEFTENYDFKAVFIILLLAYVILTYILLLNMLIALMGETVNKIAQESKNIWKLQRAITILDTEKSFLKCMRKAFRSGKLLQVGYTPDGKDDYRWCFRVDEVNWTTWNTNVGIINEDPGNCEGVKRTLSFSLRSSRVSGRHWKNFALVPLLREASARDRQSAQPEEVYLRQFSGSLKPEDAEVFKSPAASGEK
#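 Fluo-8 calcium influx in TRPV1-expressing cells, kinetic read (ex 480/em 520 nm). Compound added and read 3 min for agonist activity, followed by capsaicin at EC20 final and 2 min further read for enhancement.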
# gsp agonist: qHTS for Agonist of gsp, the Etiologic Mutation Responsible for Fibrous Dysplasia/McCune-Albright Syndrome: qHTS. Potency, µM (highest dose often 76.9 µM), without a hit: at the highest dose activation (cAMP increase), usual class: activators. AID 624287, 2012. gsp mutant cells, cAMP HTRF, 30 min; control for the full effect not named in the record. 340,000 tested, 0.13% active; active = well fitted activation curve with a large enough effect; inconclusive = small, poorly fitted or top-dose-only effect, or another doubt; inactive = no such curve, though single readings can be large or run the other way; cell line not stated here;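 note: phosphodiesterase inhibitor Ro 20-1724 added with compounds to block cAMP breakdown; potency is the fitted concentration of half-maximal effect; nearly all actives have a fitted effect of over 60% in size; about a fifth of the inactives were tested at one dose only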
#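 Cells stably selected in G418 were plated at 2000/well, grown 16-24 hr, then given compounds in DMSO with the PDE inhibitor […] (300 uM solution added) for 30 min at 37C; cAMP was read by HTRF.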
# CtBP-E1A inh: qHTS Assay for Inhibitors of the CtBP/E1A Interaction. 340,000 tested, 0.49% active. AlphaScreen GST-E1A/His-CtBP binding, 1536-well; hits give low values; control for the full effect not named in the record. CtBP / adenovirus E1A interaction (AlphaScreen). activity change, % (no concentration beside the values). AID 651724, 2012; in the data active means activity change below about -65%; inconclusive means about -30% to -65%; inactive means above about -30%; note: % is set by controls: 0 for no effect and ±100 for the full control effect; compound concentration not given in the record
#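 GST-E1A and His-tagged CtBP (125 nM each as 5X stock) were preincubated with pin-transferred compound for 2 h at 37 °C in the dark, then glutathione donor and nickel acceptor beads were added for 1 h before AlphaScreen reading.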
# gsp antag: qHTS for Antagonists of gsp, the Etiologic Mutation Responsible for Fibrous Dysplasia/McCune-Albright Syndrome: qHTS. gsp-mutant cells, cAMP HTRF, 30 min; control for the full effect not named in the record. Potency, µM (top dose mostly 76.9 µM), inactives show at the highest dose activity change, negative = inhibition, hits mostly inhibitors. 340,000 tested, 0.4% active; active = falling curve of any shape with a large fitted effect; inconclusive = falling curve, mostly with a smaller effect; inactive = flat or rising curve; cell line not stated here;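 note: intracellular cAMP measured with PDE inhibitor Ro 20-1724 present during compound exposure; potency is the fitted concentration of half-maximal effect; % is set by controls: 0 for no effect and ±100 for the full control effect; nearly all actives have a fitted effect of over 65% in size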
#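 Cells in G418 medium, seeded 16-24 h, 37C; buffer exchange to DPBS + 1 mM CaCl2, 0.5 mM MgCl2, 0.05% BSA; cpds in DMSO + […] (300 uM stock), 30 min 37C; HTRF cAMP detection.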
# Sfp inh: qHTS Assay for Inhibitors of Bacillus subtilis Sfp phosphopantetheinyl transferase (PPTase); Potency, µM, inactives show max response, negative = inhibition, most hits filed as inhibitors; 4'-phosphopantetheinyl transferase ffp (Bacillus subtilis), Q9F4F7; Biochemical Sfp PPTase activity, qHTS; AID 1490, 2009; 310,000 tested, 3.5% active; active = well fitted inhibition curve with a large enough effect; inconclusive = small, poorly fitted or top-dose-only effect, or another doubt; inactive = no such curve, though single readings can be large or run the other way;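 note: the enzyme is Sfp with the accession as filed and its product quenches rhodamine fluorescence; potency is the fitted concentration of half-maximal effect; 0% = enzyme reaction without inhibitor and -100% = no enzyme wells; top concentration of the series not given in the record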
#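 Step 1, compound plus 15 nM Sfp-PPTase, 15 min, room temperature. Step 2, add rhodamine-CoA (5 uM) and BHQ-2-YbbR (12.5 uM). Step 3, read 525/598 nm fluorescence at 0 and 30 min.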
# ClpP mod: qHTS Assay for Activators of ClpP | purified B. subtilis ClpP, FRET peptide cleavage, 20 min | Potency, µM (highest dose often 57.5 µM), without a hit: at the top dose activity change, negative = active | 340,000 tested, 1.9% active; active = well fitted falling curve with a large enough effect; inconclusive = small, poorly fitted or top-dose-only effect; inactive = no such curve, though single readings can be large or run the other way; note: potency is the fitted concentration of half-maximal effect; the source files actives as falling curves though it sought activators and does not explain the sign; nearly all actives have a fitted effect of over 65% in size; many hits overshoot -100%
# Target sequence (P80244 whole entry, looked up): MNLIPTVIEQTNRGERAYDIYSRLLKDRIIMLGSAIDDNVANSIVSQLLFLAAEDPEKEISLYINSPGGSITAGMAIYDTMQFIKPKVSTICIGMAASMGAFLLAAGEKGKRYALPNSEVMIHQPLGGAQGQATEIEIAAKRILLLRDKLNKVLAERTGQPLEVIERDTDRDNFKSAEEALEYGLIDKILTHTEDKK
#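 Purified B. subtilis ClpP, 10 microg/mL final in Tris/HCl pH8 with KCl, BSA, glycerol and Tween-20, cleaved an Abz/nitrotyrosine-quenched decapeptide. Fluorescence (ex 320, em 430) was read at 0 and 20 min at room temperature. Delta was normalized to 5.8 microM ADEP and DMSO/no-enzyme controls.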
# Menin-MLL FL inh: qHTS Assay for Inhibitors Targeting the Menin-MLL Interaction in MLL Related Leukemias: Competition With Fluorescein Labeled MLL-derived Peptide. Fluorescence polarization, fluorescein-MLL peptide displacement from menin. FP activity change, % at 61.4 µM. 290,000 tested, under 10 active. AID 1766, 2009; inconclusive = falling polarisation curve, or a change in total fluorescence; inactive = total fluorescence flat and polarisation flat or rising; no compound was filed as active; the % refers to the polarisation; negative = inhibition;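 note: % of control where 0% means no effect; inhibitors lower the polarisation; unlabelled MLL peptide was the positive control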
# * hit, by the source's call; ? = inconclusive; . = no result given; & = joins results of further samples; [ ] = remark or other dose. Not a hit list; overall some 5.3% were active at least once.
SMILES,TRPV1 potentiator,gsp agonist,CtBP-E1A inh,gsp antag,Sfp inh,ClpP mod,Menin-MLL FL inh
CCCCCCCCCC(=O)NNC(=O)c1c(O)c2ccccc2n(CCC)c1=O,6.9,-14.3%[15.4 µM],0.0,12.9%,11.8%,.,-7.6
O=C(O)c1cn2c3c(ccc(Cl)c3c1=O)OCC2,12.3,-7.6%[15.4 µM],9.5,-4.0%,2.7%,-5.3%,-4.7
Cc1c(Br)c([N+](=O)[O-])nn1CC(=O)N1CCN(C23CC4CC(CC(C4)C2)C3)CC1,25.8,5.0%,.,13.7%,-1.7%,-3.8%,1.0
COc1ccc(CCC(=O)NCCS(=O)(=O)N2CCN(c3ccccc3F)CC2)cc1,3.4,-8.9%[15.4 µM],-0.4,-13.8%,.,-10.3%,.
Cc1onc(-c2ccccc2)c1C(=O)N[C@@H]1C(=O)N2[C@@H]1SC(C)(C)[C@@H]2C(=O)O,0.0,.,.,.,-6.3%,.,3.4
Cc1cccnc1NC(=O)C1CCCN(S(=O)(=O)c2ccc3c(c2)oc(=O)n3C)C1 (stereo not given),25.4,-25.3%,3.6,-3.7%,22.0%,1.2%,4.5
Cc1onc(-c2ccccc2)c1-c1n[nH]c(=S)n1-c1ccc(C(=O)O)cc1,-1.1,8.1%,2.9,3.3%,-3.6%,-1.3%,4.2
O=S(=O)(/C(=C/c1ccc(C(F)(F)F)cc1)c1nc2ccccc2[nH]1)c1ccccc1,1.1,4.4%[15.4 µM],1.5,1.5%,-18.8%,-0.1%,5.1
Cn1c(COc2ccc([N+](=O)[O-])cc2)nnc1SCC(=O)NCC1CCCO1 (stereo not given),4.3,11.7%[15.4 µM],0.4,6.2%,18.0%,-6.3%,-0.6
O=C(O)CC/C(=N/Nc1ncc(C(F)(F)F)cc1Cl)C(=O)O,-1.7,-2.9%[15.4 µM],-9.3,12.6%,26.1%,.,-5.1
CN1c2ccccc2Sc2cc(N)ccc21,10.8,6.4%,?,-11.1%,-13.3%,.,-1.5
O=C(Nc1cccc(F)c1)N1CCC(c2ccccc2)CC1,-10.3,15.6%,1.2,-8.9%,0.1%,-0.2%,-0.2
O=C(O)c1cc([N+](=O)[O-])ccc1NCCCc1ccccc1,.,.,-24.1,?,-3.4%&18.8%&-2.6%,-2.0%,?
Cc1ccc(C)c2nc(SCC(=O)Nc3ccc4c(c3)OCO4)c(C#N)cc12,13.1,0.8%,-1.7,8.3%,21.8%,-3.8%,3.8
CC(C)COP(=O)(c1ccc(N(C)C)cc1)C(O)c1ccccn1 (stereo not given),-0.5,1.3%,-5.7,-5.9%,79.4µM*,-1.7%,-2.5
O=C(COC(=O)c1cc(-c2cccs2)nn1-c1ccccc1)Nc1ccc(Cl)c([N+](=O)[O-])c1,-12.7,1.4%,-0.5,-1.2%,18.1%,?,4.3
N/C(=N\OC(=O)CCCCCN1C(=O)c2ccccc2C1=O)c1ccccn1,1.3,-6.8%[15.4 µM],3.8,?,17.3%,-0.1%,-2.8
Cc1ccc(OC(C)C(=O)Nc2ccc(C)c(S(=O)(=O)Nc3ccc(C)cc3C)c2)cc1 (stereo not given),?,?,1.0,-19.4%,15.9%,-2.4%,-3.2
Cc1ccc(/C=N/NC(=O)Cn2nccc2C)o1,1.0,?,-13.5,5.8%,-5.4%,-2.9%,-1.9
CCCOc1ccc(/C=C/C(=O)NCc2ccccc2)cc1,-3.5,17.0%[15.4 µM],-2.7,1.7%,4.8%,-3.9%,-0.9
CC/C(Cc1ccccc1)=N\NC(=O)c1cc(C)oc1C,12.6,-56.9%[inhibitor],-3.5,8.7%,15.4%,-1.8%,-1.7
COc1ccc(NC(=O)NC(C)C2CC3CCC2C3)cc1 (stereo not given),-12.6,2.1%[15.4 µM],0.2,6.8%,7.6%,.,-3.6
CN(C)CCN1C(=O)C(=O)/C(=C(/O)c2ccc(F)cc2)C1c1ccccc1 (stereo not given),2.4,-7.9%,3.5,3.8%,-0.1%,-7.3%,0.6
Nc1nc2n(n1)C(c1ccccc1)CC(c1ccc(F)cc1)N2 (stereo not given),.,-20.9%,1.1,-3.0%,22.5%,0.2%,3.4
CC(Oc1cc2oc(=O)c3c(c2cc1Cl)CCCC3)C(=O)NCCN1CCOCC1 (stereo not given),0.0,?,-1.2,-4.4%,5.2%,3.6%,-3.8
COc1ccc(-c2nnc(SCC(=O)Nc3cc(C)on3)n2N)cc1OC,-0.9,6.6%,-4.1,8.9%,7.1%,1.8%,5.6
Cc1cccc(NS(=O)(=O)c2ccc(C)c(C(=O)OCC(=O)Nc3cc(C)on3)c2)c1,0.5,-12.6%,-10.0,-11.7%,9.8%,-2.9%,2.8
C=CCN(CC=C)Cc1c(O)ccc2c1oc(=O)c1ccccc12,.,?,-8.5,2.6%,.,-6.1%,.
O=C(O)c1cc(N=Nc2c(O)ccc3ccccc23)cc(C(=O)O)c1,-23.9,-71.9%[inhibitor],-10.2,11.4%,11.8%,-1.2%,12.9
COCCCN=Cc1c(C)[nH]n(-c2ccc(Br)cc2Br)c1=O,-26.2,-20.7%,-5.1,4.3%,8.5%,.,8.4
COc1cccc(CNC(=O)CCC(=O)N2Cc3cccc(OC)c3Oc3ncccc32)c1OC,-4.4,-5.6%,.,0.7%,18.7%,0.5%&-1.0%,.
Clc1cccc(Cl)c1C1=NOC(c2nnc(-c3ccccc3)o2)C1 (stereo not given),-7.8,.,-2.5,-11.2%,12.8%,-0.7%,-1.7
c1csc(CNc2ncnc3sccc23)c1,.,-46.0%[inhibitor],4.8,?,.,1.2%,.
Cc1ccc(NC(=O)CN(C)S(=O)(=O)c2cccc3cccnc23)cc1F,10.0,5.9%,-10.5,6.1%,-2.2%,-3.7%&-0.5%,.
Cn1cc(/C=N/Nc2ccccc2)c2ccccc21,-1.2,-103.8%[inhibitor],3.1,-14.0%,-2.6%,-6.6%,-1.8
CCN1CCN(CCNC(=O)Cn2c(=O)c3cccn3c3ccc(F)cc32)CC1,0.6,23.4%,0.9,6.6%,12.0%,-29.9%,.
Cc1ccc(CNC(=O)CN(c2ccc(C)cc2)S(=O)(=O)c2c(C)n[nH]c2C)cc1,1.6,28.2%,-4.9,-11.9%,-2.5%,-0.5%,.
CCO[C@H]1OC(C(=O)NCc2ccccc2)=C[C@@H](C2CC2)[C@@H]1CCCO,8.1,?,0.7,-11.0%,7.4%,6.6%,-0.7
CC(C)c1ccc(C2c3[nH]c4ccccc4c3C[C@H]3C(=O)N(c4ccccc4C(=O)N4CCC[C@H]4C(=O)O)C(=O)N23)cc1 (stereo not given in full),17.8,.,-4.5,-8.8%,-21.3%,-0.8%,2.7
O=c1c2c3nc4ccccc4nc3n(-c3ccc4c(c3)OCCO4)c2ncn1CC1CCCO1 (stereo not given),-10.7,.,.,.,-8.4%,.,1.9
CCC(=O)N1CCN(c2ccc(Cl)cc2NC(=O)c2ccc([N+](=O)[O-])o2)CC1,2.3,?,-4.5,-6.0%,8.2%,1.9%,.
O=C(O)c1ccc(-n2ncc3c2/C(=C\c2cccc([N+](=O)[O-])c2)CC3)cc1,.,-16.9%,12.1,-30.4%,.,1.3%,.
COc1ccc(-c2cc(CC3(C(=O)O)CCN(C(=O)OC(C)(C)C)CC3)on2)c(OC)c1,6.6,0.8%,-20.5,-8.1%,0.6%,-11.3%,0.1
COc1ccc(/C(N)=N/OC(=O)Cc2ccccc2)cc1,-10.4,?,8.3,4.4%,-10.1%,.,1.6
CC(=O)NCC1COc2ccccc2O1 (stereo not given),-12.5,-26.9%,0.0,1.3%,7.1%,1.7%,2.7
CCN(CC)c1ccc(/C=N/NC(=O)c2ccc3c(c2)OCCO3)cc1,2.0,16.0%,-3.6,-8.6%,0.2%,-22.0%,-1.9
Fc1ccc2cc(-c3ccsc3)ncc2c1,.,14.6%,6.7,-0.3%,.,-21.4%,.
O=C(COc1ccccc1)Nc1ccc2c(c1)nc1n2CCOC1,6.6,?,33.4,-0.5%,18.0%,-1.7%,3.0
O=S(=O)(Nc1ccc(-c2cnco2)cc1)c1ccccc1,-20.6,-47.4%,.,-2.1%,9.2%,-0.7%,0.6
CN=c1scc(C)n1/N=C/c1ccc(O)c(O)c1O,3.1,-46.5%[inhibitor],?,?,25.1µM*,-3.7%,2.8
COc1ccc(C(=O)Nc2cccc(S(=O)(=O)NC3=NCCC3)c2)cc1OC,.,-1.1%,-20.2,10.7%,.,-2.3%,.
O=C(/C=C/c1ccc(F)cc1)c1ccccc1Br,0.0,0.7%,5.2,5.8%,-17.8%,-2.6%,2.9
COc1ccc(C(=O)OCC(=O)c2ccc3c(c2)NC(=O)CO3)cc1[N+](=O)[O-],.,4.7%[15.4 µM],2.9,-3.7%,.,0.8%,.
COc1cc([C@@H]2CC=C(C(=O)O)CN2S(=O)(=O)c2ccc(C)cc2)cc(OC)c1OC,-0.1,.,0.4,3.1%,.,-1.5%,.
N#CC1(C#N)[C@@H](C(=O)C23CC4CC(CC(C4)C2)C3)C12CCOCC2,11.8,-16.5%,11.3,4.6%,6.4%,-1.2%,3.7
Cc1c(-c2c(C#N)c(N)nc3c2CCCCCC3)cnn1C,-1.1,3.3%,-2.0,-6.3%,12.5%,12.6µM*,-2.0

# Entries of single compounds as entered above:
# CN=c1scc(C)n1/N=C/c1ccc(O)c(O)c1O reads TRPV1 potentiator = 3.1; gsp agonist = -46.5%[inhibitor]; CtBP-E1A inh = ?; gsp antag = ?; Sfp inh = 25.1µM*; ClpP mod = -3.7%; Menin-MLL FL inh = 2.8
# Cc1c(-c2c(C#N)c(N)nc3c2CCCCCC3)cnn1C reads TRPV1 potentiator = -1.1; gsp agonist = 3.3%; CtBP-E1A inh = -2.0; gsp antag = -6.3%; Sfp inh = 12.5%; ClpP mod = 12.6µM*; Menin-MLL FL inh = -2.0
